# Polio RdRp inh = inhibitors of poliovirus RNA polymerase binding and polymerization | P03300 | poliovirus polymerase elongation, fluorescence polarization; active compounds read low | % elongation, % (compound at 16.7 µg/mL) | 150,000 tested, 0.66% active | AID 588519; in the data active = % elongation below about 90%; also: some results filed as inactive read as strong as hits
# Target sequence (P03300 1749-2209 limits assumed): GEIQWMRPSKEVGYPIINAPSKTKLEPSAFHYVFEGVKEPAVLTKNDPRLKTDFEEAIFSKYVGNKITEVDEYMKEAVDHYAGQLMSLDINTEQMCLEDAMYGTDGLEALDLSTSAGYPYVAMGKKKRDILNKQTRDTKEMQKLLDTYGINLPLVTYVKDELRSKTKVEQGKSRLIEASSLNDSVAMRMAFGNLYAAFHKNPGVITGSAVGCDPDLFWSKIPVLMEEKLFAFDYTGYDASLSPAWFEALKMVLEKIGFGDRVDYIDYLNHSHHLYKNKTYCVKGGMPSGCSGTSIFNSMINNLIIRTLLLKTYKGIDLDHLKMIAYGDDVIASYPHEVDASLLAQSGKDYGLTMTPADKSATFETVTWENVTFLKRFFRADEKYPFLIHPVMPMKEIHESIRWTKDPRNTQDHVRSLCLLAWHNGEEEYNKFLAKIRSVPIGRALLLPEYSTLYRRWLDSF
# MenB inh = blocks the Mycobacterium tuberculosis MenB enzyme; MenB enzyme assay, absorbance read-out; some hits fall short of the stated cut; inhibition, %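 (about 12 µg/mL by stock and volumes)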; AID 540299; 100,000 tested, 0.43% active;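 active = mean of two replicates above 30%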;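 also: 0% = no compound and 100% = wells with inactive enzyme; the first replicate is given; strong numbers were not always called active; inactives centre near -10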
# Target sequence (P9WNP5 whole entry, looked up): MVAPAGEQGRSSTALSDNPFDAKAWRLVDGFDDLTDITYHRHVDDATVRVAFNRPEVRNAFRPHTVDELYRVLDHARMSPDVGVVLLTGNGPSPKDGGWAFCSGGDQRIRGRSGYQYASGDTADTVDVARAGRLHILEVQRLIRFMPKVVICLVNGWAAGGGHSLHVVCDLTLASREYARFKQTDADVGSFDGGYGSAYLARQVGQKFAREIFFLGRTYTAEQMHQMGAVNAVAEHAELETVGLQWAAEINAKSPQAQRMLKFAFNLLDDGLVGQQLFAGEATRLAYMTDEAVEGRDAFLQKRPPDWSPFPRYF
# Mtb MbtI inh = blocks the Mycobacterium tuberculosis siderophore enzyme MbtI; P9WFX0; purified MbtI enzyme, fluorescence intensity read-out; inhibition, %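 (about 17 µg/mL by stock and volumes)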; 100,000 tested, 0.89% active;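 active = above 50% in both replicates, above 80% if mildly self-fluorescent; inactive = the rest, strongly fluorescent compounds included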;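 also: 0% = mean of negative and 100% = mean of positive controls; one replicate is shown; some compounds called inactive have numbers as strong as hits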
# Polio RdRp inh intensity = recorded beside Polio RdRp inh, whose call it bears; % elongation; measured here: total intensity read-out; formula for this scale not given here;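 total fluorescence in place of polarization; lower means less elongation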
# Starred values were filed as active, the others as inactive; / = not tested or not shown.
SMILES,Polio RdRp inh,Polio RdRp inh intensity,MenB inh,Mtb MbtI inh
CCOc1ccc(NC(=O)CCS(=O)(=O)c2cc3c(cc2C)NC(=O)CO3)cc1,99,101,11,-12
NC(=O)c1ccsc1NC(=O)c1csc2c1CCCC2,101,108,-16,89
CN(CC(=O)N1CCc2ccccc21)Cc1ccccc1,101,103,-14,-3
COc1cccc(CNC(=O)C(Cc2ccccc2)n2cccc2)c1 (stereo not drawn),99,104,-16,-7
Cn1c(-c2c(-c3ccccc3)n[nH]c2-c2cccs2)nc2ccccc21,103,108,-16,49
Cn1c(=O)[nH]c(=O)c2c1ncn2CCN1CCOCC1,107,106,-11,/
COc1ccc(Cl)cc1NC(=O)CN(C)C(=O)Cc1coc2c(C)c(C)ccc12,100,105,-21,-9
C(=N\n1cnnc1)/c1ccc(OC2OCCOC2Oc2ccc(/C=N/n3cnnc3)cc2)cc1 (stereo not drawn),102,106,-59,-4
Nc1ccc2c(c1)ncn2CCCn1cnc2cc(N)ccc21,103,100,/,-15
COc1ccc(/C=C2\CCCC3C2=NN(C(=O)c2ccco2)C3c2ccc(OC)c(OC)c2)cc1OC (stereo not drawn),100,102,-7,/
CN1CCN(C(=O)CSc2nc(-c3ccc(F)cc3)cc(C(F)(F)F)c2C#N)CC1,101,103,10,-14
CCCC1(C(=O)OC)NC(c2ccco2)C2C(=O)N(C)C(=O)C21 (stereo not drawn),102,101,30*,0
N#Cc1c(NCSCc2ccccc2)sc2c1CCCCC2,69*,77*,-12,/
Cn1nc(C2CC2)cc1C(=O)O,102,100,30*,2
Cc1ccc2nc(CSc3nnc4ccccn34)cc(=O)n2c1,102,110,8,-4
Nc1ncnc2c1ncn2C1O[C@H](COP(=O)(O)O)[C@@H](O)[C@H]1O (stereo partly drawn),100,102,12,-2
CNC(=O)N(O)C1N(NC(=O)Nc2ccccc2)C(=S)SC1(C)C (stereo not drawn),100,102,10,-4
CC(Oc1ccccc1)C(=O)Nc1c(C(=O)N2CCCC2)oc2ccccc12 (stereo not drawn),100,103,-22,2
Cc1cc(NNC(=O)Nc2cccc(Cl)c2)nc2c1c(C)nn2C,101,97,-13,-3
N#CCCN1CCN(S(=O)(=O)c2ccc(C#N)cc2)CC1,104,105,-19,-6
O=C1CC(C(=O)Nc2cccc(C(=O)O)c2)C(c2ccccc2)O1 (stereo not drawn),102,100,-6,-2
O=c1c2ccccc2nnn1CSc1nc2ccccc2c(=O)n1CC1CCCO1 (stereo not drawn),102,105,10,20
CCCNc1ncnc2c1cnn2C,103,102,-5,-7
CCOc1cc(N2CCOCC2)c(OCC)cc1NC(=O)c1c(C)nn(-c2ccccc2)c1C,109,108,-10,124
N/C(Cc1ccc(-c2csnn2)cc1)=N\OC(=O)C1CC1,99,99,6,-1
Cc1ccc(C)n1CC(F)(F)F,100,107,/,-5
O=C(Nc1ccccc1)Nc1cccc(-c2nnco2)c1,99,106,-6,0
CN(C(=O)CSc1nnc2c(Cl)cc(Cl)cn12)C1CCS(=O)(=O)C1 (stereo not drawn),103,106,-16,6
CC(C)NC(=S)N1CCN(S(C)(=O)=O)CC1,98,104,6,-13
c1ccc2c(CNc3ncn[nH]3)cccc2c1,104,102,3,-6

# Structures above that have a furan ring, fused or not:
SMILES,Polio RdRp inh,Polio RdRp inh intensity,MenB inh,Mtb MbtI inh
COc1ccc(Cl)cc1NC(=O)CN(C)C(=O)Cc1coc2c(C)c(C)ccc12,100,105,-21,-9
COc1ccc(/C=C2\CCCC3C2=NN(C(=O)c2ccco2)C3c2ccc(OC)c(OC)c2)cc1OC (stereo not drawn),100,102,-7,/
CCCC1(C(=O)OC)NC(c2ccco2)C2C(=O)N(C)C(=O)C21 (stereo not drawn),102,101,30*,0
CC(Oc1ccccc1)C(=O)Nc1c(C(=O)N2CCCC2)oc2ccccc12 (stereo not drawn),100,103,-22,2

# Later entries:
SMILES,Polio RdRp inh,Polio RdRp inh intensity,MenB inh,Mtb MbtI inh
CCOc1cc(/C=N/NC(N)=S)cc(I)c1O,103,101,-14,-25
CCOC(=O)N1CCC(NC(=O)CSCc2nc(-c3ccc(C)cc3)oc2C)CC1,100,103,11,16
Cc1ccc2cc3c(nc2c1)N(Cc1ccco1)CC3,104,106,-15,107
CCc1ccc(S(=O)(=O)NCCc2cn3ccccc3n2)s1,100,102,11,-31
CN1C(C(=O)N2CCC3(CC2)OCCO3)=CC(c2ccc(F)cc2)=NS1(=O)=O,104,104,-18,-16
C=Cn1ccnc1P(=NN=Nc1ccc(S(N)(=O)=O)cc1)(N(CC)CC)N(CC)CC,105,109,-18,-9
O=S(=O)(/N=C(\Nc1cccc2ccccc12)c1ccccc1)c1ccccc1,100,104,-8,/
Cc1ccc2c(CC(=O)NCc3ccccc3)coc2c1,99,93,-21,10
N#CC(=C1CCN(Cc2ccccc2)CC1)c1ccccc1,102,103,-2,-10
O=C(NC1CCCCC1)c1ccc(N2CCCC2=O)cc1,102,101,-20,-1
O=C(Cc1cccs1)NN1CCOCC1,100,103,-9,-7
Cc1ccc(C)c(OCc2nnc(SCc3nc4ccccc4s3)o2)c1,127,144,-27,36
Cc1cc2nc(C)n(CCCNC(=O)Nc3cccc4ccccc34)c2cc1C,102,101,7,-60
CN1CCN(c2ccc(Nc3ccnc4cc(Cl)ccc34)cc2Cl)CC1,89*,87*,0,/
CC(C)NC(=O)Oc1noc2cc(Cl)ccc12,99,98,2,8

# Two entries picked at random from the list so far:
SMILES,Polio RdRp inh,Polio RdRp inh intensity,MenB inh,Mtb MbtI inh
N#CC(=C1CCN(Cc2ccccc2)CC1)c1ccccc1,102,103,-2,-10
CCc1ccc(S(=O)(=O)NCCc2cn3ccccc3n2)s1,100,102,11,-31

# Continuation.
SMILES,Polio RdRp inh,Polio RdRp inh intensity,MenB inh,Mtb MbtI inh
Cc1ccc(-n2nc(C(=O)O)c(C)c(C#N)c2=O)cc1,101,100,-13,10
O=C1C2C3c4ccccc4C(c4ccccc43)C2C(=O)N1CCN1CCCCC1 (stereo not drawn),100,101,9,6
C#CCSc1ncc(C(=O)O)c(C(OC)OC)n1,104,105,-32,-2
CCN(CC)C(=O)Cn1c2cc(OC)c(OC)cc2c2nc3n(c(=O)c21)CCS3,101,101,18,-3
CC1CCC(C(C)C)C(OC(=O)CSc2nnc(N)s2)C1 (stereo not drawn),107,104,-14,-2
O=C(Nc1ccccn1)C(=NO)C(=O)Nc1ccccn1,104,100,-5,4
CCOC(=O)N1CCN(S(=O)(=O)c2ccc(OC)c(C(=O)N3CCCCC3)c2)CC1,105,100,-70,-7
O=C(c1ccc(Br)cc1)C(C(=O)N1CCCCC1)n1ccccc1=O (stereo not drawn),99,101,-12,-1
O=C(CSc1ncccn1)N(c1ccccc1)C1CCS(=O)(=O)C1 (stereo not drawn),106,108,-17,0
CN1CCC2(CC1)Oc1ccccc1C1CC(c3ccccc3)=NN12 (stereo not drawn),102,104,-17,-23
Cc1ccc2[nH]c(-c3ccccc3)c(CN3CCCC3)c(=O)c2c1,103,107,-14,1
CN(CCc1cn[nH]c1)Cc1nc(-c2ccc(C(F)(F)F)cc2)no1,103,103,20,2
CCNC(=S)N1CCN(c2ccccc2)CC1,101,103,31,-15
N#CC(C#N)=NNc1cc(-c2ccccc2)[nH]n1,101,103,14,-12
Cc1ccc(-n2nc(-c3cccs3)cc2C(=O)NCC2CCCO2)c(C)c1 (stereo not drawn),98,106,-5,10

# Part of the list above in another layout.
# The line under a structure holds: Polio RdRp inh | Polio RdRp inh intensity | MenB inh | Mtb MbtI inh
Nc1ccc2c(c1)ncn2CCCn1cnc2cc(N)ccc21
    103 | 100 | / | -15
COc1ccc(/C=C2\CCCC3C2=NN(C(=O)c2ccco2)C3c2ccc(OC)c(OC)c2)cc1OC (stereo not drawn)
    100 | 102 | -7 | /

# Next section:
SMILES,Polio RdRp inh,Polio RdRp inh intensity,MenB inh,Mtb MbtI inh
O=C1NS(=O)(=O)c2ccc(Cl)cc2Sc2ccccc21,100,105,1,2
CCN(C(=O)Cn1cc(C(F)(F)F)ccc1=O)C1CCS(=O)(=O)C1 (stereo not drawn),101,105,-2,-8
Cc1ccc(/C=C/C(=O)N2CCN(C(c3ccccc3)c3ccccc3)CC2)o1,102,102,-13,-9
CCOc1ccc(-n2c(SCC(=O)NCc3ccco3)nc3n[nH]c(C)c3c2=N)cc1,102,105,-12,-6
O=C(CN1C(=O)c2ccccc2S1(=O)=O)c1ccc(Cl)cc1,101,102,/,-6
CCCN(Cc1ccc(OC)c(C)c1OC)CC1CC1,100,102,-6,-20
O=C1CCC(=O)N1Nc1nc2ccccc2c2nc(-c3ccccc3)nn12,101,106,-4,-6
Cc1ccc2nc3sc(C(N)=O)c(N)c3cc2c1,103,105,-83,9
Cc1ccc2c(N)c(C(=O)c3ccc(Cl)cc3)sc2n1,102,101,-16,/
Cc1cc2occ(CC(=O)OCc3c(F)c(F)c(F)c(F)c3F)c2cc1C,100,101,5,14
Cc1nc(-c2ccccc2)ccc1C(=O)O,102,104,-2,11
Cc1ccnc(Cl)c1N,105,101,-13,-3
Cc1ccc(CSc2n[nH]c(=O)n2-c2cccc(Cl)c2)cc1,105,102,-10,20
CN1C(=O)N(C)C2(CC1(C)C)CC(C)(C)N(C)C(=O)N2C,105,99,-49,-5
COc1ccc(N2CCN(C(=O)/C=C/c3ccccc3)CC2)cc1,105,103,-26,-12
CCOCC(O)CSc1nc(C)cc(C)n1 (stereo not drawn),126,144,-3,/
COc1ccccc1NC(=O)O/N=C(\N)c1ccccc1,98,95,-1,-6
O=C(CSc1ncn[nH]1)Nc1cccc(Br)c1,102,102,/,2
COC(=O)c1sccc1NC(=S)NCCN1CCNC1=O,104,104,-17,10
c1ccc(OCCN2CCNCC2)cc1,103,102,-36,-2
CCN(CC)C(=O)COc1ccc(OC)cc1,101,104,2,-13
CC(=O)N1CC(C)Sc2cc(S(=O)(=O)NCc3ccco3)ccc21 (stereo not drawn),99,104,-7,0
Cc1nc2sccn2c1-c1nc(-c2ccc(Br)o2)c(C(=O)c2ccc3c(c2)OCCO3)s1,107,111,4,98*
COCCn1c(N)c(C(=O)NCc2ccccc2)c2nc3ccccc3nc21,107,100,-1,-51
CC(=O)N1CCCc2ccc(NC(=O)Cc3ccc(F)cc3)cc21,99,108,-15,7
Cc1c(NC2=C(C(=O)c3ccccc3)N(C)S(=O)(=O)c3ccccc32)c(=O)n(-c2ccccc2)n1C,104,101,-21,-6
Cn1cccc1Cc1nnc(SCC(=O)N2CCc3ccccc32)n1Cc1ccccc1,98,101,5,6
Cc1cc(C)c2c(c1C#N)CC(C)(C)C2=O,102,99,2,-2
Cc1cc(C)n(CC(=O)Nc2nc(-c3ccccc3)cs2)n1,101,99,-18,-15
Cc1ccc2[nH]c3c(c2c1)CCCC3=NCCO,98,98,-49,-42
Cc1noc(C)c1C(=O)Nc1nnc(SCC(=O)O)s1,105,95,3,/
COc1ccc(C(=O)n2nccc2-c2ccc(-c3cccs3)s2)cc1,98,101,-1,109
CCSc1nnc(Nc2ccccc2)s1,103,102,-35,9

# 3 neighbouring records from above:
SMILES,Polio RdRp inh,Polio RdRp inh intensity,MenB inh,Mtb MbtI inh
CCOCC(O)CSc1nc(C)cc(C)n1 (stereo not drawn),126,144,-3,/
COc1ccccc1NC(=O)O/N=C(\N)c1ccccc1,98,95,-1,-6
O=C(CSc1ncn[nH]1)Nc1cccc(Br)c1,102,102,/,2
